Screening data as filed in PubChem.
NPYLR7 ag = mosquito NPYLR7 agonism; HEK293T NPYLR7/Galpha15, GCaMP6s calcium fluorescence; activation, % at 10 µM; 270,000 tested, 0.15% active; AID 1259423; in the data active = activation above about 40%;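 also: 0% = vehicle and 100% = reference agonist at the receptor; some compounds past the cut are filed as inactive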
NPYLR7 ag max-min = recorded beside NPYLR7 ag, whose call it bears; activation, %; measured here: Max-Min RFU normalised activation; some inactives read as strong as hits;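 span of the calcium signal over five minutes; 0% = vehicle and 100% = native peptide agonist; compound fluorescence can raise it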
The depositor's hits bear a star; & = joins results of further samples. The list is partial, so the mix of outcomes need not match the whole.

Molecule	NPYLR7 ag	NPYLR7 ag max-min
COC(=O)N1CCCN(C(=O)Nc2cccc(C(F)F)c2)CC1	1	1
CCC(C)c1csc(NC(=O)NC2CCC(=O)N(C)C2)n1 (stereo not drawn)	4	1
Cc1ccc(NC(=O)C2=NCC(=O)N(c3ccccc3)N2)cc1C	0	-1
CCOCCCN(CC(=O)N(CCc1ccc(OC)c(OC)c1)Cc1cccs1)C(=O)c1ccc(C(F)(F)F)cc1	-15	-18
COc1cc(CN2C(=O)C(C)ON=C2c2ccccc2F)cc(OC)c1 (stereo not drawn)	9	5
Cc1nn(-c2ccc(F)cc2)c2nc(CCC(C)C)nc(N3CCCN(C(=O)c4ccco4)CC3)c12	1	3
Cc1ccc(Oc2cc(C)nc(SCc3cccc([N+](=O)[O-])c3)n2)c(C)c1	-9	-9
COc1ccc(S(=O)(=O)Oc2cc(CN(CC3CCCO3)C(=O)CC(C)C)ccc2OC)cc1 (stereo not drawn)	3	13

Carrying on.
Molecule	NPYLR7 ag	NPYLR7 ag max-min
CCSc1nnc2c(n1)OC(c1c(OC)ccc3ccccc13)Nc1ccccc1-2 (stereo not drawn)	-4	-8
O=C(CSc1ccc2nnc(-c3cccnc3)n2n1)Nc1cccc(C(F)(F)F)c1	0	-2
CC12CCC(C(=O)Oc3cccnc3)(c3nc4ccccc4nc31)C2(C)C (stereo not drawn)	-7	-13
CN1CCN(Cc2cncc(-c3cccc(C(F)(F)F)c3)c2)CC1	4	2
CCC(=O)Nc1ccc2c(c1)cc(C(=O)NCCOC)n2Cc1cccc(C)c1	5	4
COc1cc(S(=O)(=O)n2ccc(C)n2)ccc1F	9	11
CCOC(=O)c1ccc(-n2ccc3c(cnc4nc(C)nn43)c2=O)cc1	4	4
CCN(CC)CCSc1ccc(-c2cccc([N+](=O)[O-])c2)nn1	8	1

Next records:
Molecule	NPYLR7 ag	NPYLR7 ag max-min
O=C(C=Cc1ccsc1)N1CCN(S(=O)(=O)c2ccccc2F)CC1	-2	-4
Cc1nc2ccccc2nc1OCC(=O)NCC(F)(F)F	-9	-9
O=C(CN=C1NS(=O)(=O)c2ccccc21)N1CCc2[nH]c3ccccc3c2C1	13	6
COc1ccc(C(NC(=O)C2CCN(CCOc3ccc(F)cc3)CC2)c2cccs2)cc1 (stereo not drawn)	10	-3
O=C(Nc1ccc(S(=O)(=O)Nc2ncccn2)cc1)c1ccsc1	14	7
COCCN(CC(=O)N1CCc2sccc2C1COc1ccccc1OC)S(=O)(=O)c1ccc(C)cc1 (stereo not drawn)	-1	3
COc1coc(CN2CCCC2c2nc3ccc(F)cc3[nH]2)cc1=O (stereo not drawn)	6	4
COc1cc(OC)cc(-n2c(C3(c4ccc(Cl)cc4)CCC3)n[nH]c2=S)c1	2	-2

(listing goes on)
Molecule	NPYLR7 ag	NPYLR7 ag max-min
CN(C)C1CCCN(C(=O)c2ccc3cc[nH]c3c2)CC1 (stereo not drawn)	14	6
CN(CCNC(=O)c1c[nH]c(=O)c(Cl)c1)C(=O)OC(C)(C)C	-10	11
Cc1ncc(-c2c(-c3ccccc3)ncn2CCCCN2CCCC2)[nH]1	-4	-9
O=S(=O)(CCN1CCC2(CCc3ccccc32)C1)c1ccccc1 (stereo not drawn)	9	8
C=CCC(=O)N1CCc2ccc(NC(=O)CCc3ccccc3OC)cc2C1	4	0
Cc1ccc(N2C(=O)CC(N3CCN(c4ncccn4)CC3)C2=O)cc1Cl (stereo not drawn)	2	-1
Cc1cccc2sc(N(Cc3ccccn3)C(=O)C3CCCN(S(C)(=O)=O)C3)nc12 (stereo not drawn)	0	-1
Nc1nc(-c2cccs2)cs1	2	26

Looked up by structure from the entries so far:
Molecule	NPYLR7 ag	NPYLR7 ag max-min
Nc1nc(-c2cccs2)cs1	2	26
O=S(=O)(CCN1CCC2(CCc3ccccc32)C1)c1ccccc1 (stereo not drawn)	9	8

Sorted by formula weight (lowest first): part of the list above
Molecule	NPYLR7 ag	NPYLR7 ag max-min
CN(CCNC(=O)c1c[nH]c(=O)c(Cl)c1)C(=O)OC(C)(C)C	-10	11
O=S(=O)(CCN1CCC2(CCc3ccccc32)C1)c1ccccc1 (stereo not drawn)	9	8
C=CCC(=O)N1CCc2ccc(NC(=O)CCc3ccccc3OC)cc2C1	4	0

Remaining list, next part:
Molecule	NPYLR7 ag	NPYLR7 ag max-min
O=C(NC1=NCCS1)c1ccc(Cl)c(S(=O)(=O)NC2CCCc3ccccc32)c1 (stereo not drawn)	6	3
Fc1ccc(OCc2nc(CSc3nnnn3C3CC3)cs2)cc1	2	1
CN(Cc1cc2cc(F)ccc2[nH]1)Cc1cn[nH]c1C(=O)O	23	15
CCCCc1ccc(-c2ccc(-n3cncc3C(=O)NC/C=C(\C)CCC=C(C)C)cc2)cc1	9	4
COCCOc1nc(-c2ccc(OC)cc2)n(-c2ccc(NC(=O)Nc3cccc(OC)c3)cc2)n1	0	5
CCOc1ccc(C(=O)CC(c2ccccc2)C(C#N)C#N)cc1 (stereo not drawn)	24	17
CCC(CC)C(=O)Nc1c(C)nc2scc(C)n2c1=O	1	-2
CSc1ccccc1Nc1ncnc2c1nnn2C	11	3

Single entries from the results shown:
`CCCCc1ccc(-c2ccc(-n3cncc3C(=O)NC/C=C(\C)CCC=C(C)C)cc2)cc1` in NPYLR7 ag max-min = 4
`CSc1ccccc1Nc1ncnc2c1nnn2C` in NPYLR7 ag = 11
`CN(Cc1cc2cc(F)ccc2[nH]1)Cc1cn[nH]c1C(=O)O` in NPYLR7 ag max-min = 15
`CCOc1ccc(C(=O)CC(c2ccccc2)C(C#N)C#N)cc1` (stereo not drawn) in NPYLR7 ag = 24

The list goes on:
Molecule	NPYLR7 ag	NPYLR7 ag max-min
Cc1nc(COc2ccccc2C(=O)N2CCc3ccccc3C2)no1	10	10
CCOC(=O)c1c(NC(=O)Cc2ccccc2)sc(C(=O)Nc2ccccc2)c1C	-5	-12
CCOC(=NC(=O)c1ccc(C)cc1)N(C)C1CCN(C)CC1	10	11
CCC(COC)NC(=O)c1c(C)noc1-c1ccncc1 (stereo not drawn)	-1	7
Cc1ccc(-c2ccnc(NCc3ncn[nH]3)n2)c(C)n1	19	13
CN(CCCOc1ccc(S(C)(=O)=O)cc1)C(=O)NCC1CCCC1	-2	0
CCCCCCNC(CC(=O)Nc1cc(Cl)ccc1O)C(=O)O (stereo not drawn)	4	5
Cc1cccc(-c2nc3c(c(SCC(=O)N(C)c4ccccc4)n2)Cc2c(CO)cnc(C)c2O3)c1	30	28

Not a retest: an excerpt of the list.
Molecule	NPYLR7 ag	NPYLR7 ag max-min
CCOC(=NC(=O)c1ccc(C)cc1)N(C)C1CCN(C)CC1	10	11
CCC(COC)NC(=O)c1c(C)noc1-c1ccncc1 (stereo not drawn)	-1	7

(continued)
Molecule	NPYLR7 ag	NPYLR7 ag max-min
COc1ccc(CC(=O)Nc2nnc(SCc3ccccc3C#N)s2)cc1	10	20
CC1c2cccn2CCN1C(=O)c1cnc(CN2CCCC2)s1 (stereo not drawn)	-2	-22
Cc1cccc(OC(F)F)c1NC(=O)C1(C)CCN1C(=O)C1(c2ccccc2)CC1 (stereo not drawn)	10	22
O=c1[nH]ncn2nc(-c3ccccc3)cc12	-1	-4
CCN(CC)CCn1c(N)c(S(=O)(=O)c2ccccc2)c2nc(C#N)c(C#N)nc21	3	11
CCn1ncc(C(=O)NCCN2N=C(c3ccccc3)CCC2=O)c1C	14	7
CN(CCCN1c2ccccc2CCc2ccccc21)C(=O)Nc1cccc(F)c1	-3	-13
NC12CC3CC(CC(C3)C1)C2	-10&-10&0&5&7&2	5&-12&-7&3&6&2

Other records follow.
Molecule	NPYLR7 ag	NPYLR7 ag max-min
CCCCCCCC(=O)N(CC(=O)N(Cc1ccc(F)cc1)Cc1sccc1C)CC1CCCO1 (stereo not drawn)	-4	3
CN(C(=O)c1ccccc1N1CCC(NS(=O)(=O)c2ccc(F)cc2)CC1)C1CCCCC1	3	6
CNC(=O)c1cnn(-c2cccc(Cl)c2)c1C(F)(F)F	0	1
COC1CCN(CCS(=O)(=O)c2ccc(C(C)(C)C)cc2)CC1	5	4
CCOc1ccccc1C(=O)N1c2cccc3c2[C@@H](C[C@H]1C(=O)NC)CN(CCOC)C3=O	1	8
O=C(CSc1nnc(N2CCN(C(=O)Cn3cnc4ccccc43)CC2)s1)Nc1ccccc1	-20	-21
O=C(Nc1ccc(S(=O)C(F)(F)F)cc1)C1CCCN1S(=O)(=O)c1ccccc1 (stereo not drawn)	1	0
O=C(Cc1ccc(O)c(F)c1)N1CC(c2cccnc2)C1	1	-4

(more compounds)
Molecule	NPYLR7 ag	NPYLR7 ag max-min
CCOc1ccccc1N1CCN(C(=O)CN2CC3=C(C2=O)C(c2ccc(F)cc2)NC(=O)N3C)CC1 (stereo not drawn)	-1	1
CC(C(=O)N1CCCCCC1)N1CC(c2nc3ccccc3[nH]2)C1 (stereo not drawn)	-21	-22
Cc1nn(-c2ccc(F)cc2)c2nc(Cc3ccccc3)nc(N3CCN(C(=O)c4ccc(Cl)cc4Cl)CC3)c12	2	7
CC(O)CN(c1ccccc1)S(=O)(=O)c1ccc2c(c1)CCCC(=O)N2 (stereo not drawn)	1	11
Cc1[nH]n(-c2ccccc2)c(=O)c1C1=C(N2CCCCC2)C(=O)N(c2ccccc2F)C1=O	6	10
NC(=O)CSc1nc2ccccc2n1CCOc1ccc(Cl)cc1	-5	-10
COC(=O)c1ccc(-c2noc(CN3CCC(c4nc5ccccc5o4)CC3)n2)cc1	-4	-6
COc1ccc(C(=O)N2CCC3(CC2)SCCN3C(=O)c2cccc(OC)c2)cc1	20	26

Next part:
Molecule	NPYLR7 ag	NPYLR7 ag max-min
Cc1c(Cl)c([N+](=O)[O-])nn1CC(=O)Nc1cc(C(F)(F)F)cnc1Cl	9	11
CC(C)(C)c1ccc(COc2coc(CN3CCCN(C(=O)CC4NC(=O)NC4=O)CC3)cc2=O)cc1 (stereo not drawn)	8	16
O=C(COc1ccccc1)NCCn1nc(-c2ccco2)ccc1=O	2	-1
Cn1c(-c2ccncc2)nn(CN(Cc2cccs2)C2CCS(=O)(=O)C2)c1=S (stereo not drawn)	2	-1
COC(C(=O)Nc1ccnn1C1CCN(C(=O)c2ccco2)CC1)c1ccccc1 (stereo not drawn)	-2	-5
Cc1ccoc1C(=O)NCCNc1cccnc1	7	-2
O=C(Cc1ccsc1)N1CC(=O)N(CC2CCOCC2)CC(OCc2cccnc2)C1 (stereo not drawn)	15	2
CCOc1ccc(C(C2Sc3nc(C)nn3C2=O)N2CCCCC2)cc1OC (stereo not drawn)	-1	-3

The list continues:
Molecule	NPYLR7 ag	NPYLR7 ag max-min
COc1ccc(Br)cc1C=NNC(=O)Cn1nc(C)cc1C	5	3
CC(C)c1cc(NC(=O)c2cc(F)ccc2Br)n[nH]1	-6	-8
COCCn1c(O)c(C=NNC(=O)c2cc(Cl)ccc2O)c(=O)[nH]c1=S	-1	-5
Cc1cccc(-c2nc(NC(=O)N3CCC(CCn4ccnc4C)CC3)n[nH]2)c1	3	-9
CCOC(=O)CN(C)C(=O)CC(c1ccccc1)c1ccc2c(c1)OCO2 (stereo not drawn)	5	2
CS(=O)(=O)c1ncc(CN2CCCC2)n1CC1CCCCC1	8	5
O=C(Cc1coc2cc3c(cc12)CCC3)OC1CCCCC1=O (stereo not drawn)	3	0
C=CCn1c2c(sc1=NC(=O)NNc1ccccc1)CCc1ccccc1-2	6	11

Next part
Molecule	NPYLR7 ag	NPYLR7 ag max-min
Cc1nc(C)c(C(=O)N2CCCC(N3CCN(c4ccccc4C)CC3)C2)s1 (stereo not drawn)	-1	-4
CCOc1ncccc1CN1CCC(C(=O)N(CC(C)C)CC(C)C)CC1	-1	-5
CCCc1cc(=O)n(CC(=O)NCCc2ccccc2)c(-n2nc(C)cc2C)n1	-3	0
Cc1cc(Cl)ccc1OCC(=O)NC1CCCCC1C (stereo not drawn)	-7	-11
CS(=O)(=O)N1CCN(C(=O)c2csc(Nc3ccc(OC(F)F)cc3)n2)CC1	12	0
CCOC(=O)Cn1c(=O)c2c(nc3n(C(C)c4ccccc4)c(C)cn23)n(C)c1=O (stereo not drawn)	21	35
CC(C)CN(CC(=O)N(CCc1c[nH]c2ccccc12)Cc1ccc(Cl)c(Cl)c1)C(=O)Nc1cccc(C(F)(F)F)c1	5	9
Cc1ccc(CNC(=O)C(C)n2cnc3oc(C)c(C(=O)O)c3c2=O)cc1 (stereo not drawn)	7	5

Going on with the list:
Molecule	NPYLR7 ag	NPYLR7 ag max-min
CCOc1ccccc1OCCOc1ccccc1OCC	-5	5
CCc1ccc(CN(Cc2ccncc2)C(C)CC)nc1 (stereo not drawn)	6	5
CCC(=O)Nc1nnc(CC(=O)N/N=C\c2ccc(OC)cc2)s1	28	12
CCCN(CC(=O)Nc1c(-c2ccccc2)c(C)nn1-c1ccccc1C)C(=O)C(CC)c1ccccc1 (stereo not drawn)	12	11
OC[C@H]1O[C@@H](O[C@@H]2[C@@H](CO)O[C@](O)(CO)[C@H]2O)[C@H](O)[C@@H](O)[C@H]1O	-5	-13
OC1CCN(Cc2nnnn2-c2ccccc2Br)CC1	9&5	8&6
O=C(Cc1nc(-c2ccncc2)n[nH]1)NCCCN1CCOCC1	2	3
CCC(C(=O)N1CCN(C(C(=O)NCC2CCCO2)C2CCCC2)CC1)c1ccccc1 (stereo not drawn)	-2	-3

(continued)
Molecule	NPYLR7 ag	NPYLR7 ag max-min
CC(SCc1csc(-c2ccccc2)n1)C(=O)O (stereo not drawn)	-14	-19
COc1ccc(NC(=O)C2CCN(C(=O)[C@@H](Cc3ccccc3)NC(=O)C34CC5CC(CC(C5)C3)C4)CC2)cc1	4	-2
O=C(CCN1CCc2sccc2C1c1cccc(F)c1)N1CCN(C(=O)COCc2ccccc2)CC1 (stereo not drawn)	7	0
CCSCCC(C)N(C)C(=O)c1ccnnc1 (stereo not drawn)	0	-6
CC(C)(C)CC(C)(C)Nc1c(-c2ccccc2F)nc2ccc(Cl)cn12	4	11
COc1ccc(-n2c(-c3ccc(Br)cc3)c[n+]3c2CCCCC3)cc1	-4	-17
CCOC(=O)N1CCc2c(sc(NC(=O)c3ccco3)c2-c2nc3ccccc3s2)C1	2	0
CC1(C)CC(NCc2ccco2)CCO1 (stereo not drawn)	2	4
